Bioassay records deposited in PubChem by National Center for Advancing Translational Sciences (NCATS).
EPAC1 agonist – human EPAC1 agonism, validation; 16,000 compounds, 1% hits; AID 1645883; O95398; EPAC1 Rap1b BODIPY-GDP exchange, fluorescence; Potency, µM, for inactives: max response, positive = active, usual class: activators; active means well fitted activation curve with a large enough effect; inconclusive means small, poorly fitted or top-dose-only effect; inactive means no such curve, though single readings can be large or run the other way;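 further: nearly all actives have a fitted effect of over 70% in size; series mostly up to about 76 or 150 µM; scaled to a cAMP control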
Starred values were filed as active, the others as inactive; ? = inconclusive; & = joins results of further samples; [ ] = dose if it differs, or a comment. On the % scale 0 is the no-effect control and ±100 the full control effect; potency means the concentration at half of the fitted maximal effect.

Start of the data: the first 2 entries, ahead of the listing:
SMILES	EPAC1 agonist
COc1ccc(/C=C/C(=O)O)cc1	-31%[inhibitor]
Nc1c2ccccc2nc2ccccc12 (tested in a mixture with another compound)	1%

The list itself, previewed entries included:
SMILES	EPAC1 agonist
COc1ccc(/C=C/C(=O)O)cc1	-31%[inhibitor]
Nc1c2ccccc2nc2ccccc12 (tested in a mixture with another compound)	1%
O=C(Nc1ccc(C(=O)O)c(O)c1)c1ccccc1	1%
O=C(O)c1cc2ccccc2c(Cc2c(O)c(C(=O)O)cc3ccccc23)c1O	-64%[inhibitor]
O=P(O)(O)OC(CO)CO	25%
NC(=NCc1ccccc1)NC(=O)c1nc(Cl)c(N)nc1N	0%&9%&12%&-9%
CCCCCCCC/C=C\CCCCCCCC(=O)O	-80%[inhibitor]
CCCCCCCCCCCCCCCCCC(=O)O	9%
COc1ccc(CN2CCN(C(c3ccc(F)cc3)c3ccc(F)cc3)CC2)c(OC)c1OC	?
CC(C)[C@@H]1CC[C@@H](C)CC1=O	-18%
CNC1CCCN(c2c(F)cc3c(=O)c(C(=O)O)cn(C4CC4)c3c2OC)C1 (stereo not given)	-26%
NC(N)=NC(=O)Cc1c(Cl)cccc1Cl	-10%&1%&4%
NNC(=O)CP(=O)(c1ccccc1)c1ccccc1	2%
COc1cc([C@@H]2Oc3cc([C@H]4Oc5cc(O)cc(O)c5C(=O)[C@H]4O)ccc3O[C@H]2CO)ccc1O	-21%
COc1ccc(S(=O)(=O)N2c3ccc(Cl)cc3[C@@](O)(c3ccccc3Cl)[C@H]2C(=O)N2CCC[C@@H]2C(N)=O)cc1OC	12%
COc1ccc2nc(NC(=O)Nc3ccccc3)sc2c1	-25%
CCCCCCCCCCCCCC[N+](C)(C)Cc1ccccc1	-36%[inhibitor]
NC1(c2ccc(-c3nc4ccn5c(=O)[nH]nc5c4cc3-c3ccccc3)cc2)CCC1	6%
CCCCC1C(=O)N(c2ccccc2)N(c2ccccc2)C1=O	-3%&6%&-8%&21%
COc1ccc(-c2cc(=O)c3c(O)c(OC)c(OC)c(OC)c3o2)cc1OC	-36%[inhibitor]

3 compounds from above, sorted by formula weight, rising:
SMILES	EPAC1 agonist
CC(C)[C@@H]1CC[C@@H](C)CC1=O	-18%
COc1ccc(/C=C/C(=O)O)cc1	-31%[inhibitor]
COc1ccc(S(=O)(=O)N2c3ccc(Cl)cc3[C@@](O)(c3ccccc3Cl)[C@H]2C(=O)N2CCC[C@@H]2C(N)=O)cc1OC	12%

The list continues.
SMILES	EPAC1 agonist
CCCCCCc1ccc(O)cc1O	-28%&-69%
O=C(NN1CCCC1)NS(=O)(=O)c1ccc(Cl)cc1	8%
CC1(C)OC2CC3C4CC(F)C5=CC(=O)C=C[C@@]5(C)[C@@]4(F)C(O)C[C@@]3(C)[C@]2(C(=O)CO)O1 (stereo not given in full)	-17%
COc1ccc2ccc(=O)oc2c1	5%
Cc1cccc(C)c1NC(=O)C1CCCCN1C (stereo not given)	-51%[inhibitor]
NS(=O)(=O)c1cc(-c2nn[nH]n2)c(NCc2cccs2)cc1Cl	-22%
Cc1ccc2nc(N)[nH]c(=O)c2c1Sc1ccncc1	-24%
Cn1c(=O)c2c(ncn2CCO)n(C)c1=O	-15%&-19%
CCCCNC(=O)[C@@H]1Cc2ccccc2N1C(=O)[C@H](N)CC	0%
CC(=O)Nc1ccccc1	19%&-40%
CCCOC(=O)c1ccc(O)cc1	5%&-6%
CC1CC2C3CC(F)C4=CC(=O)C=C[C@@]4(C)[C@@]3(F)C(O)C[C@]2(C)[C@]1(O)C(=O)COC(=O)C(C)(C)C (stereo not given in full)	0%
COc1ccccc1OCCNCC(O)COc1cccc2[nH]c3ccccc3c12 (stereo not given)	-3%&4%
C=C1c2cccc(O)c2C(O)=C2C(=O)[C@]3(O)C(O)=C(C(N)=O)C(=O)[C@@H](N(C)C)[C@@H]3[C@@H](O)[C@H]12	22%
CCCCCCCCCCCCCCCC(=O)O	-37%[inhibitor]
NCCCC[C@@H](N)C(=O)O	-10%
COc1cc([C@H]2Oc3cc([C@H]4Oc5cc(O)cc(O)c5C(=O)[C@@H]4O)ccc3O[C@@H]2CO)ccc1O	-25%
C=CCOc1cc(Cl)ccc1C(=O)NCCN(CC)CC	-5%
CCCOC(C(=O)OC1CCN(C)CC1)(c1ccccc1)c1ccccc1	-26%
CCCCC(=O)O[C@]1(C(=O)CO)[C@H](C)C[C@H]2[C@@H]3CCC4=CC(=O)C=C[C@]4(C)[C@@]3(F)[C@@H](O)C[C@@]21C	-27%

Reprinted at random: 3 records from the list
SMILES	EPAC1 agonist
NC(=NCc1ccccc1)NC(=O)c1nc(Cl)c(N)nc1N	0%&9%&12%&-9%
O=C(Nc1ccc(C(=O)O)c(O)c1)c1ccccc1	1%
CCCOC(C(=O)OC1CCN(C)CC1)(c1ccccc1)c1ccccc1	-26%

The results go on.
SMILES	EPAC1 agonist
NCCCC[C@H](N)C(=O)O	-3%
Oc1cc2c(cc1O)[C@@H]1c3ccc(O)c(O)c3OC[C@]1(O)C2	2%
CC(=O)Nc1ncc([N+](=O)[O-])s1	-28%
Nc1c2c(nc3ccccc13)CCCC2O (stereo not given)	-5%&-16%&-22%
Nc1ncnc2nc[nH]c12	21%
CCn1cc(C(=O)O)c(=O)c2cc(F)c(N3CCNCC3)nc21	-7%&16%
C#CCC(Cc1cnc2nc(N)nc(N)c2n1)c1ccc(C(=O)N[C@@H](CCC(=O)O)C(=O)O)cc1 (stereo not given in full)	5%
CC(=O)Nc1ccc(S(=O)(=O)Nc2cc(C)on2)cc1	-7%
O=C(Nc1ccc(Cl)c(Cl)c1)C1CC1	-9%
C/C(=C(\CCO)SS/C(CCO)=C(\C)N(C=O)Cc1cnc(C)nc1N)N(C=O)Cc1cnc(C)nc1N	2%
CN(C)CCOc1ccccc1Cc1ccccc1 (tested in a mixture with another compound)	-8%
CNc1c2c(nn1C)CCCC2	-14%
CCCCCCCCCCCCCCNCCO	-15%
Cc1cc(C)cc(OCC2CNC(=O)O2)c1 (stereo not given)	-28%
COc1ccc(/C=N/NC(=O)c2ccncc2)cc1OC	-20%
Cc1cccc(C)c1NC(=O)CN(CC(=O)O)CC(=O)O	27%
NC(N)=NCCC[C@@H](N)C(=O)O	-10%&-9%
CN(C)CCOc1ccccc1Cc1ccccc1	?
COc1ccc(/C=C\C(=O)Nc2ccccc2C(=O)O)cc1OC	-15%
C/C(=N\O)c1ccc(OCC(=O)N2CCCCC2)cc1	8%
O=C(O)CNC(=O)c1ccccc1	-6%
CC[C@]1(O)C[C@@H]2CN(CCc3c([nH]c4ccccc34)[C@@](C(=O)OC)(c3cc4c(cc3OC)N(C)[C@H]3[C@@](O)(C(=O)OC)[C@H](OC(C)=O)[C@]5(CC)C=CCN6CC[C@]43[C@@H]65)C2)C1	-26%&-34%
OCc1ccccn1	-5%
CCC(=O)O[C@]1(C(=O)SCF)[C@H](C)C[C@H]2[C@@H]3C[C@H](F)C4=CC(=O)C=C[C@]4(C)[C@@]3(F)[C@@H](O)C[C@@]21C	-53%[inhibitor]
Cc1cccc(Nc2cc(Cl)nc(SCC(=O)O)n2)c1C	-17%&-15%&-8%&4%
CC(C)(C)c1nnc(NS(=O)(=O)c2ccccc2)s1	6%
CCOC(=O)NNc1nncc2ccccc12	?
CC(=O)Oc1ccc2c(c1)CC[C@@H]1[C@@H]2CC[C@]2(C)[C@@H](O)CC[C@@H]12	28µM*
CCCCOc1ccc(CC(=O)NO)cc1	?
NCCNC(=O)c1ccc(Cl)cn1	-14%
C/C=C/C=N/NC(=O)c1ccncc1	-8%
C#C[C@@]1(O)CCC2C3CCC4=CC(=O)CCC4C3CC[C@@]21CC (stereo not given in full)	9%

A portion of the library, so the mix of outcomes need not match the whole.
